CSC inhib: cancer stem cell viability inhibitors, primary screen, luminescence; cancer stem cell-like cells viability; inhibition, % at 7.5 µM; 300,000 tested, 1.1% active; AID 2717, 2010;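 active = mean at 75% or more and at least half the replicates too; tested in HMLE shEcad cells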;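 note: 0% = median of negative and 100% = median of positive control wells; the first replicate is given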
MT1-MMP act inh: blockers of MT1-MMP proenzyme processing, primary screen, HT1080 RFP-PRO-GFP cells, GFP/RFP fluorescence. Matrix metalloproteinase-14 (Homo sapiens), P50281. GFP/RFP ratio fluorescence, overnight; percent of plate control window, DMSO zero. GFP/RFP ratio change, % at 20 µM. 360,000 tested, 0.061% active. AID 651647, 2012;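 active = GFP/RFP ratio change of at least 30% with cell ATP level not reduced by more than half and red fluorescence within 50% of control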; note: strong numbers were not always called active
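Read-out: GFP/RFP fluorescence ratio; Test system: RFP-PRO-GFP reporter HT1080 cells; Compound dosing: single-point 20 µM compound, 1% DMSO; Times: overnight compound exposure at 37 °C.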
eIF4H FP inh: human eIF4H binding inhibitors, primary screen, translation initiation inhibitor project, biochemical, uHTS, fluorescence polarization | Eukaryotic translation initiation factor 4H (Homo sapiens), Q15056 | eIF4H fluorescence polarization binding assay | inhibition, % at 35 µM | 290,000 tested, 0.94% active;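 active = 50% or more with normal probe brightness, or confirmed in later tests; about a fifth of its hits are not listed in these tables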;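 note: calls also rest on retests at 20 µM and on dose response follow-up; 0% = protein and probe with vehicle and 100% = probe without protein; strong numbers were not always called active; many hits fall short of the cut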
HIV Env fusion: inhibitors of HIV-1 Env-driven cell-cell fusion, primary screen, HeLa-JRFL effector, CEM21 target cells, luciferase | inhibition, % at 12.3 µM | 360,000 tested, 1.1% active | AID 651610, 2012;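 active = mean replicate inhibition score of at least 50 and every replicate individually at or above 50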;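 note: 0% = plate neutral controls and 100% = maraviroc near 300 nM; one replicate is shown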
Rce1 inhib: yeast Rce1p protease inhibitors, primary screen, biochemical, fluorescence, cell-free homogeneous; CAAX prenyl protease 2 (Saccharomyces cerevisiae (strain ATCC 204508 / S288c)), Q03530; yeast membranes, quenched prenylated peptide cleavage fluorescence; calls only; 290,000 tested, 0.27% active; AID 2563, 2010;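 active = fall in fluorescence gain of 50% or more versus controls, with final raw signal at or below 3038400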;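 note: plate controls were neutral control wells for no effect and wells lacking membranes for full effect; tested at 10 µM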
Target sequence (Q03530 whole entry, looked up): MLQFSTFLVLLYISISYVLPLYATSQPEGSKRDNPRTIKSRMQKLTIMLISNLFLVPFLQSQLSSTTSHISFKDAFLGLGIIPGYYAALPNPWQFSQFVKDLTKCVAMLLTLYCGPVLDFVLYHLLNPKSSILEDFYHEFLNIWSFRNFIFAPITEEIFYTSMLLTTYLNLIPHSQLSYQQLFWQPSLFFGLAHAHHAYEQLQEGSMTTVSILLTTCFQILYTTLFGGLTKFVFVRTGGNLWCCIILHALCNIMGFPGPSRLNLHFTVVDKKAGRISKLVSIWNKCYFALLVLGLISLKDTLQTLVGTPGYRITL
Yeast UUG start: modulators of yeast start codon fidelity, primary screen, whole organism, S. cerevisiae, single point, plate reader | activity score, % at 18.7 µM | S. cerevisiae UUG-firefly luciferase reporter, luminescence/redox ratio | 350,000 tested, 0.13% active | AID 602363, 2012;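 active = replicate mean at a twofold rise or more, about +100% in these data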;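 note: firefly luciferase made from a UUG start codon reports start codon fidelity; reporter light over untreated wells divided by growth signal over untreated wells; some hits fall short of that in this replicate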
PABP FP inh: PABP poly(A) RNA binding inhibitors, primary screen, biochemical, fluorescence polarization, uHTS; Polyadenylate-binding protein 1 (Homo sapiens), P11940; inhibition, % at 35 µM; 290,000 tested, 1% active;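 active = 50% or more with normal probe brightness, or confirmed in later tests; about a fifth of its hits are not listed in these tables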;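 note: calls also rest on retests at 20 µM and on dose response follow-up; controls were probe without protein and protein plus probe with vehicle; some compounds called inactive have numbers as strong as hits; many hits fall short of the cut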
Target sequence (P11940 whole entry, looked up): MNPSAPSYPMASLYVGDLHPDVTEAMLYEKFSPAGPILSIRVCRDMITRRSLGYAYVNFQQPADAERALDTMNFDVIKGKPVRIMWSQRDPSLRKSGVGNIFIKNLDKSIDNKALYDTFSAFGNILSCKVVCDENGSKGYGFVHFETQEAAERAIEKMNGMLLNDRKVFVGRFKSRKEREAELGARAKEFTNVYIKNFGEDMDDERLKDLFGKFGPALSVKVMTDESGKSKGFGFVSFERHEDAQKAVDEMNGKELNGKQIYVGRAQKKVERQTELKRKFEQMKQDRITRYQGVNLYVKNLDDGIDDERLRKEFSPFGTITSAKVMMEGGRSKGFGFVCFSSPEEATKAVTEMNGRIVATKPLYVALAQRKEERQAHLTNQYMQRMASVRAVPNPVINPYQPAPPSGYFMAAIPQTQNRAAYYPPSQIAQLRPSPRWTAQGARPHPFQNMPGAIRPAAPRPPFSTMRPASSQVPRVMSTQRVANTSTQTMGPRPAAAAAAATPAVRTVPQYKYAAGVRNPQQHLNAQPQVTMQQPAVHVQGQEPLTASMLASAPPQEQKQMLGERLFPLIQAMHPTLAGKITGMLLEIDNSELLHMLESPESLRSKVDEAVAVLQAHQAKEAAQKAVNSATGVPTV
MT1-MMP act inh RFP: recorded beside MT1-MMP act inh, whose call it bears; RFP signal change, %; measured here: RFP expression control read;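 0 = vehicle wells; hits needed this value within 50% of zero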
The depositor's hits bear a star. A portion of the library; count on the stated rates, not on these rows.

For O=C(N/N=C/c1ccsc1)c1c[nH]c2ccccc12 the results were CSC inhib -18, MT1-MMP act inh 0, eIF4H FP inh -8, HIV Env fusion -17, Rce1 inhib inactive, Yeast UUG start -13, PABP FP inh 17 and MT1-MMP act inh RFP 0.
Screening Cn1cccc1-c1cc(C(=O)N/N=C/c2ccc(Cl)cc2)[nH]n1 returned CSC inhib 40, MT1-MMP act inh 2, eIF4H FP inh -4, HIV Env fusion 1, Yeast UUG start -15, PABP FP inh -8 and MT1-MMP act inh RFP 4.
`O=C(COC(=O)c1ccco1)Nc1nc2ccccc2s1` gave CSC inhib -5, MT1-MMP act inh 0, eIF4H FP inh -18, HIV Env fusion -3, Rce1 inhib inactive, Yeast UUG start -11, PABP FP inh -5 and MT1-MMP act inh RFP -1.
For NS(=O)(=O)c1ccc(CCNc2nn3c(-c4cccc(OC(F)(F)F)c4)cnc3s2)cc1 the results were MT1-MMP act inh -1, HIV Env fusion 20, Yeast UUG start -13 and MT1-MMP act inh RFP -27.
For CC(C(=O)N1CCCc2c1c(=O)oc1ccc(O)cc21)N1CCc2ccccc2C1 (configuration not stated) the results were CSC inhib -12, MT1-MMP act inh -2, eIF4H FP inh -3, Rce1 inhib inactive, Yeast UUG start -8, PABP FP inh -3 and MT1-MMP act inh RFP -4.
For CSc1ncc(-c2ccccc2)cn1 the results were CSC inhib -7, MT1-MMP act inh 1, eIF4H FP inh -14, HIV Env fusion -34, PABP FP inh -7 and MT1-MMP act inh RFP 2.
For CC1=NN(c2ccccc2)C(=O)C1(C)[N+](=O)[O-] (configuration not stated) the results were CSC inhib 7, MT1-MMP act inh -5, eIF4H FP inh 2, Rce1 inhib inactive, Yeast UUG start 1, PABP FP inh 0 and MT1-MMP act inh RFP 0.
COc1ccc(S(=O)(=O)N2CCN(C(=O)COc3ccc(C)c(C)c3)CC2)cc1OC was read as CSC inhib -11, MT1-MMP act inh -5, eIF4H FP inh 10, HIV Env fusion -11, Rce1 inhib inactive, Yeast UUG start -8, PABP FP inh 1 and MT1-MMP act inh RFP -8.
`O=C(NCCSc1ncc(-c2ccccc2)[nH]1)c1ccco1` gave CSC inhib -18, MT1-MMP act inh 6, HIV Env fusion -1, Rce1 inhib inactive, Yeast UUG start -15 and MT1-MMP act inh RFP -1.
Screening COc1ccc(NC(=O)C(CC(C)C)NC(=O)C2CCCCC2)c(OC)c1 (configuration not stated) returned CSC inhib -7, MT1-MMP act inh -1, eIF4H FP inh 4, HIV Env fusion 9, Rce1 inhib inactive, Yeast UUG start -6, PABP FP inh 9 and MT1-MMP act inh RFP -2.
For CCOC(=O)N1CCN(C(=O)C2CCCN(S(=O)(=O)c3ccc(C)cc3)C2)CC1 (configuration not stated) the results were CSC inhib -11, MT1-MMP act inh 6, eIF4H FP inh -17, Rce1 inhib inactive, PABP FP inh -4 and MT1-MMP act inh RFP -1.
Screening Cc1cccc2sc(N(CCCN3CCOCC3)C(=O)CS(=O)(=O)c3ccc(F)cc3)nc12 returned CSC inhib -9, MT1-MMP act inh 1, HIV Env fusion -9, Rce1 inhib inactive, Yeast UUG start -1 and MT1-MMP act inh RFP 0.
Screening CC(C)(C)C1CCC(C(=O)OCC(=O)Nc2ccc3[nH]c(=O)[nH]c3c2)CC1 (configuration not stated) returned CSC inhib -21, MT1-MMP act inh 5, eIF4H FP inh 24, HIV Env fusion 31, Rce1 inhib inactive, Yeast UUG start -12, PABP FP inh 4 and MT1-MMP act inh RFP 2.
COc1ccccc1NC(=O)Nc1ccc(Cl)c(S(=O)(=O)Nc2ccccc2OC)c1 was read as CSC inhib 21, MT1-MMP act inh 3, eIF4H FP inh -5, HIV Env fusion -15, Rce1 inhib inactive, PABP FP inh 2 and MT1-MMP act inh RFP -1.
`CN(C)c1ccc(C=NCC2COc3ccccc3O2)cc1` (configuration not stated) gave CSC inhib -13, MT1-MMP act inh 2, eIF4H FP inh -15, HIV Env fusion 5, Rce1 inhib inactive, PABP FP inh -3 and MT1-MMP act inh RFP 9.
COc1ccc(CNc2cccc3[nH]c(C(F)(F)F)nc23)cc1OC was read as CSC inhib 7, MT1-MMP act inh -3, eIF4H FP inh -10, HIV Env fusion -9, Rce1 inhib inactive, PABP FP inh 14 and MT1-MMP act inh RFP 0.
For O=S(=O)(c1ccc(Br)cc1)c1nc(-c2ccccc2)oc1N1CCOCC1 the results were CSC inhib -11, MT1-MMP act inh -4, eIF4H FP inh -6, HIV Env fusion 19, Rce1 inhib inactive, Yeast UUG start -8, PABP FP inh -5 and MT1-MMP act inh RFP -4.
Screening NC(=O)c1cc([N+](=O)[O-])ccc1NCc1ccc(F)cc1 returned CSC inhib 6, MT1-MMP act inh 2, HIV Env fusion -29, Yeast UUG start -17 and MT1-MMP act inh RFP 1.
Screening Cc1ccc(NC(=O)N2C(=O)C3(OCCO3)c3ccccc32)cc1 returned CSC inhib -6, MT1-MMP act inh 4, eIF4H FP inh -10, Rce1 inhib inactive, Yeast UUG start -20, PABP FP inh 7 and MT1-MMP act inh RFP 4.
For O=C(O)COc1ccc(=O)n(-c2ccccc2)n1 the results were MT1-MMP act inh -2, eIF4H FP inh 2, HIV Env fusion -37, Rce1 inhib inactive, Yeast UUG start 7, PABP FP inh -4 and MT1-MMP act inh RFP -3.
COc1ccc([N+](=O)[O-])cc1N1C(=O)c2cccnc2C1=O was read as CSC inhib -4, MT1-MMP act inh -1, eIF4H FP inh 4, HIV Env fusion 6, Rce1 inhib inactive, Yeast UUG start -18, PABP FP inh 8 and MT1-MMP act inh RFP 0.
Screening CCN1CCN(C(CNS(=O)(=O)c2ccccc2)c2ccccc2)CC1 (configuration not stated) returned CSC inhib 6, MT1-MMP act inh -3, eIF4H FP inh -3, HIV Env fusion 7, Rce1 inhib inactive, Yeast UUG start -13, PABP FP inh 1 and MT1-MMP act inh RFP 1.
Screening Cc1ccc(C(=O)Nc2ccccc2C(=O)NC(Cc2ccccc2)C(=O)O)cc1 (configuration not stated) returned CSC inhib 4, MT1-MMP act inh -4, eIF4H FP inh -14, HIV Env fusion -9, Rce1 inhib inactive, Yeast UUG start 9, PABP FP inh -5 and MT1-MMP act inh RFP 2.
Screening O=C(O)CCCC(=O)NCCc1cccc(Cl)c1 returned CSC inhib 0, MT1-MMP act inh 1, eIF4H FP inh -3, HIV Env fusion -10, Rce1 inhib inactive, Yeast UUG start -15, PABP FP inh 7 and MT1-MMP act inh RFP 1.
For COc1cccc(OCc2ccc(Cn3nc(NC(=O)NCCc4ccc(OC)c(OC)c4)c4ccccc43)cc2)c1 the results were MT1-MMP act inh 5, HIV Env fusion 28, Yeast UUG start -8 and MT1-MMP act inh RFP -1.
Screening CCC(=O)N(C(=O)CC)N1CCN(c2ccncc2S(=O)(=O)N2CCCCC2)CC1 returned CSC inhib -3, MT1-MMP act inh 1, eIF4H FP inh -14, HIV Env fusion 5, Yeast UUG start -9, PABP FP inh -6 and MT1-MMP act inh RFP -4.
`Cc1ccc(S(=O)(=O)NNc2c3ccccc3nc3ccc(Cl)cc23)cc1` gave MT1-MMP act inh -1, HIV Env fusion 12, Yeast UUG start 4 and MT1-MMP act inh RFP -9.
`Cc1ccccc1NC(=O)COc1ccc2oc(=O)cc(C)c2c1` gave CSC inhib -2, MT1-MMP act inh 2, eIF4H FP inh -7, HIV Env fusion -25, Rce1 inhib inactive, Yeast UUG start -12, PABP FP inh -5 and MT1-MMP act inh RFP 3.
O=C(/C=C/c1ccccc1)Nc1nnc(SCC(=O)c2ccc3ccccc3c2)s1 was read as MT1-MMP act inh 8, eIF4H FP inh 10, HIV Env fusion -23, Yeast UUG start -18, PABP FP inh 8 and MT1-MMP act inh RFP -1.
For Cn1nc(CC(=O)NCc2ccc(C(F)(F)F)cc2)c2ccccc2c1=O the results were CSC inhib -3, MT1-MMP act inh 6, eIF4H FP inh -14, HIV Env fusion 71*, Rce1 inhib inactive, Yeast UUG start -29, PABP FP inh -7 and MT1-MMP act inh RFP -16.
For CCCCCCCCCC(=O)N[C@@H]1c2cc(OC)c(OC)cc2C[C@H]1O the results were MT1-MMP act inh 2, HIV Env fusion 13, Yeast UUG start -12 and MT1-MMP act inh RFP -12.
`COCC(=O)Nc1nnc(-c2ccc(C(C)(C)C)cc2)s1` gave MT1-MMP act inh 3, eIF4H FP inh -10, HIV Env fusion -131, Rce1 inhib inactive, Yeast UUG start -6, PABP FP inh -2 and MT1-MMP act inh RFP 4.
`CCOc1ccc(CCNC(=O)CSC(=S)N2CCCC2)cc1OCC` gave MT1-MMP act inh -3, HIV Env fusion -6, Rce1 inhib inactive, Yeast UUG start -11 and MT1-MMP act inh RFP 0.
CCn1nccc1C(=O)Nc1ccc(S(=O)(=O)NC23CC4CC(CC(C4)C2)C3)cc1 was read as MT1-MMP act inh -6, eIF4H FP inh -6, HIV Env fusion 42, Yeast UUG start -6, PABP FP inh 2 and MT1-MMP act inh RFP -8.
`CCCO/N=C1/C(=O)N(c2ccccc2)c2ccccc21` gave CSC inhib -7, MT1-MMP act inh -3, eIF4H FP inh -4, HIV Env fusion 22, Rce1 inhib inactive, PABP FP inh 5 and MT1-MMP act inh RFP -6.
Screening CCOC(=O)c1[nH]c(COC(=O)CCCOc2ccccc2)c(C(=O)OCC)c1C returned CSC inhib 2, eIF4H FP inh -8, Rce1 inhib inactive and PABP FP inh -2.
Screening O=C(CSc1nnnn1-c1ccc(F)cc1F)Nc1ccccc1F returned CSC inhib -14, MT1-MMP act inh 6, eIF4H FP inh 12, HIV Env fusion 14, Rce1 inhib inactive, Yeast UUG start -1, PABP FP inh -1 and MT1-MMP act inh RFP 0.
Screening COc1ccc(CCNC(=O)C(=O)Nc2ccc3nc4n(c(=O)c3c2)CCCCC4)cc1OC returned CSC inhib 56, MT1-MMP act inh -2, eIF4H FP inh -8, HIV Env fusion 10, Rce1 inhib inactive, Yeast UUG start 20, PABP FP inh -2 and MT1-MMP act inh RFP -4.
Screening COc1ccccc1CN1CCCC(C(=O)N2CCCCC2)C1 (configuration not stated) returned CSC inhib -9, MT1-MMP act inh 2, eIF4H FP inh 10, HIV Env fusion 11, Rce1 inhib inactive, Yeast UUG start -10, PABP FP inh 6 and MT1-MMP act inh RFP 4.
For CCOC(=O)C1[C@H]2C(=O)N(C(C)c3ccc(OC)cc3)C[C@]23C=C[C@H]1O3 (some centres not stated) the results were CSC inhib -6, MT1-MMP act inh -1, eIF4H FP inh -10, HIV Env fusion -5, Rce1 inhib inactive, Yeast UUG start -3, PABP FP inh -2 and MT1-MMP act inh RFP 4.
Screening N#CC/C(N)=N/Nc1nc2ccccc2nc1Cc1ccccc1 returned CSC inhib 41, MT1-MMP act inh -12, eIF4H FP inh 8, HIV Env fusion 10, Rce1 inhib inactive, Yeast UUG start -2, PABP FP inh -10 and MT1-MMP act inh RFP 7.

An excerpt from above in order of SMILES length, largest number first.
CCn1nccc1C(=O)Nc1ccc(S(=O)(=O)NC23CC4CC(CC(C4)C2)C3)cc1 was read as MT1-MMP act inh -6, eIF4H FP inh -6, HIV Env fusion 42, Yeast UUG start -6, PABP FP inh 2 and MT1-MMP act inh RFP -8.
Screening CCOC(=O)c1[nH]c(COC(=O)CCCOc2ccccc2)c(C(=O)OCC)c1C returned CSC inhib 2, eIF4H FP inh -8, Rce1 inhib inactive and PABP FP inh -2.
For CCCCCCCCCC(=O)N[C@@H]1c2cc(OC)c(OC)cc2C[C@H]1O the results were MT1-MMP act inh 2, HIV Env fusion 13, Yeast UUG start -12 and MT1-MMP act inh RFP -12.
